KCNQ2 block: KCNQ2 potassium channel inhibitors, primary screen, cell-based, CHO-K1, FluxOR thallium flux, B-score (AID 2156); 1.1% of 310,000 active; 20 min; hits give low values; only compounds with negative scores are shown here; some inactives read as strong as hits; Potassium voltage-gated channel subfamily KQT member 2 (Rattus norvegicus), O88943; B-score at 10 µM;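 active means fluorescence ratio B-score at most minus 3 library SDs, with starting brightness B-score within 2 library SDs, cut at about -5.5 in these data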
Target sequence (O88943 whole entry, looked up): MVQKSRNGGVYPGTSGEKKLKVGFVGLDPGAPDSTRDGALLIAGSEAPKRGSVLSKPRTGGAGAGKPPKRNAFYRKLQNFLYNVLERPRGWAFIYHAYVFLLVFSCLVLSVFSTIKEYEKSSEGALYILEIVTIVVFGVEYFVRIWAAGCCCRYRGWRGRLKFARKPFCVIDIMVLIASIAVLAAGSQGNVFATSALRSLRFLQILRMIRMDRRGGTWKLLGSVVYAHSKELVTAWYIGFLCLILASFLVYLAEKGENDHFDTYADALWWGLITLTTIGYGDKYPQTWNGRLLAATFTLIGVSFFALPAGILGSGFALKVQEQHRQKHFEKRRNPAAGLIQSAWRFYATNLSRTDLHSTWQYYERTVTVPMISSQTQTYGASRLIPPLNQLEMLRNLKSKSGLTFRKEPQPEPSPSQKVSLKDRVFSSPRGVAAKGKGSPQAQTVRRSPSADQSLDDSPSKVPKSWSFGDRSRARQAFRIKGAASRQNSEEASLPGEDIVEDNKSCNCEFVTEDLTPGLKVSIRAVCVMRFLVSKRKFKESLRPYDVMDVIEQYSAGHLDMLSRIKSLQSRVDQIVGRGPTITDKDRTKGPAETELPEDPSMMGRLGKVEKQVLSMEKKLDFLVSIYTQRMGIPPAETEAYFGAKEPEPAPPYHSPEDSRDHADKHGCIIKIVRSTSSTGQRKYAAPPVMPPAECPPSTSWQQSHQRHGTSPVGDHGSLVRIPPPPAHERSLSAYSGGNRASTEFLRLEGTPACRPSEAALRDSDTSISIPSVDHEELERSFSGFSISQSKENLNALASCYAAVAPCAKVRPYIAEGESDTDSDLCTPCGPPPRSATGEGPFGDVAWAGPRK
KCNQ2 block baseline: second read-out of KCNQ2 block, no call of its own (marks repeat the call); B-score; measured here: initial fluorescence intensity artifact check;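 brightness before thallium and not channel activity; 0 = typical well and far values either way flag optical interference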
* marks the source's active call; other numbers are inactive results; i = inactive. A portion of the library, so the mix of outcomes need not match the whole.

| Compound | KCNQ2 block | KCNQ2 block baseline |
| --- | --- | --- |
| O=C(COC(=O)C12CC3CC(CC(C3)C1)C2)Nc1ccc(OC(F)F)cc1 | i | 1.9 |
| O=C(COc1ccccc1)NCCSCc1ccco1 | i | -0.07 |
| CCc1cccc2cc3c(N)c(C(=O)Nc4ccc(S(=O)(=O)N5CCCC5)cc4)sc3nc12 | i | 2.5 |
| CCN1CCN(c2ccc(S(=O)(=O)N3CCOCC3)cc2NC(=O)CCOc2ccccc2)CC1 | i | -1.8 |
| O=C(NCC(c1cccnc1)N1CCN(c2ccccc2)CC1)c1ccc2c(c1)OCO2 (stereo not drawn) | i | -1.2 |
| Fc1ccc(-n2c(-c3ccc4ccccc4n3)n[nH]c2=S)cc1 | i | 2.1 |
| CCOC(=O)N1CCC(NC(=O)c2cc(-c3ccc(OC)cc3)nc3ccccc23)CC1 | i | 0.15 |
| Cc1cc(C)c2cccc(NC(=S)NC(=O)c3ccccc3)c2n1 | i | -2.2 |
| Cc1cc(NC(=O)COc2cccc3cccnc23)no1 | i | -1.2 |
| O=S(=O)(c1ccc2c(c1)CCCN2)N1CCCC2CCCCC21 (stereo not drawn) | i | 1.3 |
| CCC(c1nc2ccccc2c(=O)n1-c1cccnc1)N1C(=O)c2ccccc2C1=O (stereo not drawn) | i | 1.9 |
| CCC(CC)NC(=O)c1nn(Cc2ccccc2)c(=O)c2ccccc12 | i | -0.19 |
| CCn1c(CNC(=O)c2ccc3c(c2)OCO3)nnc1SCC(=O)Nc1cc(C)ccc1OC | i | 0.91 |
| O=C(CNC(=S)N(CCCN1CCOCC1)Cc1cccs1)NCc1ccccc1Cl | i | -0.19 |
| Cc1nccn1CC(O)COc1ccc([N+](=O)[O-])cc1 (stereo not drawn) | i | -2 |
| O=C(O)c1ccc(NC(=O)c2cc3ccccc3o2)cc1 | i | 0.8 |
| Cc1ccc2sc(N3CCN(CCNC(=O)c4ccco4)CC3)nc2c1C | i | -1.4 |
| S=C(Nc1ccc(Cl)cc1)c1sc(N2CCCCC2)nc1N1CCOCC1 | i | 0.02 |
| O=C(O)Cn1cnc2sc3c(c2c1=O)CCCC3 | i | -0.02 |
| CC1(c2ccc3ccccc3c2)NC(=O)N(CC(=O)NCc2cccs2)C1=O (stereo not drawn) | i | 0.81 |

An excerpt from above in order of count of non-hydrogen atoms, descending.
| Compound | KCNQ2 block | KCNQ2 block baseline |
| --- | --- | --- |
| CCn1c(CNC(=O)c2ccc3c(c2)OCO3)nnc1SCC(=O)Nc1cc(C)ccc1OC | i | 0.91 |
| CCc1cccc2cc3c(N)c(C(=O)Nc4ccc(S(=O)(=O)N5CCCC5)cc4)sc3nc12 | i | 2.5 |
| Cc1ccc2sc(N3CCN(CCNC(=O)c4ccco4)CC3)nc2c1C | i | -1.4 |

Remaining list, next part:
| Compound | KCNQ2 block | KCNQ2 block baseline |
| --- | --- | --- |
| CC1CCN(CC(C)OC(=O)c2ccco2)CC1 (stereo not drawn) | i | -0.05 |
| Cc1nc2ccccc2c(=O)n1/N=C/c1c(O)ccc2oc3c(c12)CCCC3 | i | 1.4 |
| COC(=O)c1cnc(N2CCCN(S(=O)(=O)c3ccc(C(F)(F)F)cc3)CC2)nc1C(F)(F)F | i | 0.21 |
| CCN(CCNC(=O)C1CCN(Cc2nc(-c3ccc(Cl)cc3)oc2C)CC1)c1ccccc1 | -6.9* | -0.56* |
| CCCCS(=O)(=O)/C=C\C1C2C=CC(C2)C1S(=O)(=O)CCCC (stereo not drawn) | i | -0.17 |
| COc1ccc(N(C(C)C(=O)NC2CCCCCC2)S(C)(=O)=O)cc1 (stereo not drawn) | i | -1.3 |
| CCC(C(=O)OCC(=O)Nc1cc(Cl)cc(Cl)c1)c1ccccc1 (stereo not drawn) | i | 0.63 |
| O=C(O)c1cccc(Cn2c(Cl)c(/C=N/NC(=O)c3cc4ccccc4cc3O)sc2=O)c1 | i | 0.57 |
| CCOc1ccc(C(=O)NCc2ccccc2)cc1Br | i | 0.02 |
| CCOC(=O)COc1ccc(S(=O)(=O)N2CCN(c3ccc(F)cc3)CC2)cc1 | i | 0.13 |
| COC(=O)CN(c1ccc(OCc2ccccc2)cc1)S(C)(=O)=O | i | 1.8 |
| O=C(Nc1ccccc1F)c1cc(S(=O)(=O)N2CCOCC2)cs1 | i | 0.1 |
| CC[C@H](C)[C@H](NC(=O)OCc1ccccc1)C(=O)Nc1ccc(NC(C)=O)cc1 | i | -0.12 |
| COc1ccc(O)c(C(=O)CC(=O)c2ccccc2C)c1 | i | -0.59 |
| OC1(c2ccc(Cl)c(Cl)c2)C[n+]2ccccc2N1Cc1ccccc1 (stereo not drawn) | i | 0.88 |
| CCc1ccc(-c2cn(-c3nc(C)cc(C)n3)c(=N)o2)cc1 | -6.4* | -0.9* |
| O=C(NCC1CCCN(C(=O)c2cccc(C(F)(F)F)c2)C1)c1ccc(F)cc1 (stereo not drawn) | i | -1.3 |
| CCOc1cccc(-c2cc(C(=O)Nc3ccon3)c3ccccc3n2)c1 | i | -1.8 |
| O=c1c2ccccc2ncn1-c1ccc(Cl)cc1[N+](=O)[O-] | i | -0.02 |
| Cc1csc(NC(=O)Cc2coc3cc(C)c(C(C)C)cc23)n1 | i | 0.06 |

Exported with the structure last: part of the list above.
KCNQ2 block	KCNQ2 block baseline	compound
i	-0.12	CC[C@H](C)[C@H](NC(=O)OCc1ccccc1)C(=O)Nc1ccc(NC(C)=O)cc1
i	-0.59	COc1ccc(O)c(C(=O)CC(=O)c2ccccc2C)c1
i	0.88	OC1(c2ccc(Cl)c(Cl)c2)C[n+]2ccccc2N1Cc1ccccc1 (stereo not drawn)
-6.4*	-0.9*	CCc1ccc(-c2cn(-c3nc(C)cc(C)n3)c(=N)o2)cc1

More results:
| Compound | KCNQ2 block | KCNQ2 block baseline |
| --- | --- | --- |
| N=C1/C(=C\c2ccc(SCc3ccco3)o2)C(=O)N=C2SC=NN12 | i | 1 |
| COc1ccc(NC(=O)CSc2nc3ccccc3c(=O)n2-c2ccc3c(c2)OCO3)c(OC)c1 | i | 1.1 |
| O=C(O)CNC(=S)N(Cc1ccccc1)Cc1ccccc1F | i | -1.7 |
| CC1(C)NC(=O)N(CCOc2cccc(Oc3ccccc3)c2)C1=O | i | 0.25 |
| COC(=O)c1cc(S(=O)(=O)NCCc2ccccc2)c[nH]1 | i | -0.56 |
| Cn1ncc(N=Cc2c(O)ccc3ccccc23)c1C(=O)Nc1cccc(Cl)c1 | i | -0.8 |
| O=C(Nc1cccc(F)c1)C1CCCN(S(=O)(=O)c2ccc(-n3cnnn3)cc2)C1 (stereo not drawn) | i | -0.28 |
| O=S(=O)(c1ccccc1)N1CCN(Cc2ccccc2)CC1 | i | 1.1 |
| COc1ccc(/C=C/C(=O)Nc2cc(S(=O)(=O)N3CCCCC3)ccc2N2CCCCC2)cc1OC | i | -0.19 |
| COc1ccc(-n2c(C)cc(C(=O)CN3C(=O)NC4(CCc5ccccc54)C3=O)c2C)cc1 (stereo not drawn) | i | 0.88 |
| O=C(Nc1ccccc1)OC1CCCCc2cccnc21 (stereo not drawn) | i | 0.39 |
| COc1ccc(Cn2c(CCC(=O)O)nc3cccnc32)cc1 | i | 0.79 |
| NC(=O)C(Cc1ccccc1)N1C(=O)c2ccccc2C1=O (stereo not drawn) | i | -0.24 |
| COc1ccccc1C(=O)N1CC2(C)CC1CC(C)(C)C2 (stereo not drawn) | i | 0.43 |
| CCOC(=O)c1c(C)[nH]c(C)c1S(=O)(=O)N(C)CC(=O)NCc1cccc(Br)c1 | i | -0.01 |
| CC(C)N(CC#CC(O)(c1ccccc1)c1ccccc1)C(C)C | i | 1.7 |
| COCCCn1c(SCc2cccc(C(F)(F)F)c2)nc2cc(OC)c(OC)cc2c1=N | i | -0.46 |
| CCOC(=O)c1c(C)c(C#N)c2c3ccccc3ccn12 | i | 0.27 |
| Cn1c(=O)oc2cc(S(=O)(=O)N3CCC(C(=O)N4CCc5ccccc5C4)CC3)ccc21 | i | 0.22 |
| Cc1ccc(S(=O)(=O)c2ncccc2N)cc1 | i | -0.01 |
| COc1ccc(C(CC(=O)Nc2ccc(C)cc2)NC(=O)C(F)(F)F)cc1 (stereo not drawn) | i | 2.5 |
| COc1ccccc1C1CC(c2ccc(NS(C)(=O)=O)cc2)=NN1S(=O)(=O)c1ccccc1 (stereo not drawn) | i | 1.1 |
| O=C(NCc1ccccc1Cl)c1ccc2c(=O)n(CC3CCCO3)c(=S)[nH]c2c1 (stereo not drawn) | i | -2 |
| O=c1[nH]c(SCc2nc3ccccc3c(=O)n2-c2ccccc2C(F)(F)F)nc2ccccc12 | i | -1.2 |
| COc1ccc(-c2noc(CSc3nnc(CCc4ccccc4)n3-c3ccccc3)n2)cc1OC | i | -0.9 |
| O=S(=O)(Nc1ccc(C(F)(F)F)cc1)c1cnc[nH]1 | i | -0.2 |
| CCOc1ccc(S(=O)(=O)N(C)c2ccc(OCC(=O)NCC3CCCO3)cc2)cc1 (stereo not drawn) | i | 0.72 |
| CC(=O)c1cccc(NC(=O)CNC(=O)c2cc3ccccc3o2)c1 | i | 4.2 |
| CC(C)C(=O)N1CCN(c2ccccc2NC(=O)Cc2ccc(Cl)cc2)CC1 | i | -0.26 |
| CCC(C)c1ccc(NC(=S)Nc2ccc(OC)cc2C)cc1 (stereo not drawn) | i | 1.3 |
| Cc1cccc(OCCCC(=O)O)c1C | i | 1.5 |
| CC(C)(C)C(=O)Nc1ccc(C(=O)NNC(=O)c2ccccc2)cc1 | i | 0.04 |
| O=C1N/C(=C/c2ccc(N3CCCC3)cc2)C(=O)N1c1ccccc1 | i | 0.01 |
| COC(=O)c1sc2nc(CN3CCN(c4cccc(C(F)(F)F)c4)CC3)[nH]c(=O)c2c1C | i | 0.69 |
| O=C(c1nc2ccc(Cl)cn2c1CN1CCC[C@H]1CO)N1CCCCCCC1 | i | 4.3 |
| COc1ccc(OCC(=O)Nc2ccc3c(c2)nc(CCN2CCOCC2)n3C)cc1 | i | -0.03 |
| COC(=O)c1ccccc1SC1CC(=O)N(c2ccccc2)C1=O (stereo not drawn) | i | 3.7 |
| CCOc1ccc(C(=O)NC(C(=O)NCCc2ccc(OC(F)F)cc2)C(C)C)cc1 (stereo not drawn) | i | -2.8 |
| CCOC(=O)CN1N=C(c2ccc(Cl)s2)CSC1=O | i | 1.4 |
| COc1ccc(-c2ncncc2-c2ccc(OC)c(OC)c2)c(O)c1 | i | -1 |
| Cc1nnc(Sc2c(-c3ccccc3)c3ccc(Cl)cc3[nH]c2=O)s1 | i | 3.3 |
| Cc1c([N+](=O)[O-])cc(C(=O)Oc2cccc(C(=S)N3CCOCC3)c2)cc1[N+](=O)[O-] | i | 0.08 |
| O=C1NC2=C(C(=O)CCC2)C(c2ccccc2[N+](=O)[O-])N1 (stereo not drawn) | i | -1.2 |
| COc1ccnc(NCc2ccc(Cl)cc2)c1C#N | i | 0.88 |
| CCCc1oc(C(=O)O)cc1CN1CCOCC1 | i | -0.43 |
| Cc1ccccc1/C=N/Nc1nc2ccccc2c(=O)n1O | i | 0.64 |
| CNC(=O)[C@H](C)[C@@H]1C[C@@]1(C)[C@@H](NC(=O)OCc1ccccc1)c1ccccc1 | i | -1.7 |
| CC(OC(=O)CC(NC(=O)c1ccccc1Cl)c1ccccc1)C(=O)Nc1cccc(Cl)c1Cl (stereo not drawn) | i | -0.36 |
| O=C1CC[C@@H](CN(Cc2ccccn2)Cc2nc(Cc3ccccc3)no2)N1 | i | 2.1 |
| C#CCOC(=O)c1ccccc1C(=O)N(CC)CC | i | -1.8 |
| CCCn1c(=O)c2[nH]cnc2n(-c2ccc(Cl)cc2)c1=O | i | -0.49 |
| O=C(COC(=O)/C=C/c1ccc(S(=O)(=O)N2CCOCC2)cc1)NC1CCCCCCC1 | i | -0.81 |
| O=C(COc1ccccc1)NCC(=O)Nc1cccc(S(=O)(=O)NC2=NCCC2)c1 | i | -0.64 |
| CC(C)(C)C(=O)Nc1ccc(C(=O)N/N=C/c2ccccc2OC(=O)c2ccc(Cl)cc2)cc1 | i | -1 |
| Cc1cccc(N)c1-c1c(C)cccc1N | i | 0.15 |
| O=C(CN1CCN(S(=O)(=O)c2ccc(Cl)cc2)CC1)Nc1ccc2c(c1)OCO2 | i | 0.22 |
| Cc1ccc(C(C(=O)NC(C)(C)C)N(C(=O)c2csnn2)c2cccc(F)c2)o1 (stereo not drawn) | i | 0.92 |
| Cc1ccc(C)c(S(=O)(=O)Nc2cc3c4c(c2)CCN4C(=O)CC3)c1 | i | 0.22 |
| COc1ccc([C@@H]2C[C@H](c3ccccc3)Oc3cc(OC)c(OC)c(OC)c32)cc1 | i | -0.78 |
| CC1CCN(c2cc(N3CCOCC3)c(F)cc2[N+](=O)[O-])CC1 | i | 0.8 |

Further entries:
| Compound | KCNQ2 block | KCNQ2 block baseline |
| --- | --- | --- |
| CC1CCCC(C)N1C(=O)COC(=O)C(Cc1ccccc1)NC(=O)c1cccs1 (stereo not drawn) | i | 0.35 |
| Oc1cccc(/C=N/N(Cc2ccccc2)c2ccccc2)c1 | i | 0.82 |
| CC(C)CCNC(=O)NC(=O)CSc1nnc2ccccn12 | i | -1 |
| CCN=C1SCC(=O)N1c1ccc(OC)cc1 | i | 1.4 |
| COc1ccc(-c2nc3ccccc3n2Cc2ccccc2)cc1 | i | -1.5 |
| COc1ccc(NC(=O)CSc2nnnn2C2CCCC2)cc1 | i | -1.3 |
| O=C(Nc1cccc(S(=O)(=O)N2CCOCC2)c1)c1cn(-c2ccccc2)nc1-c1ccc(F)cc1 | i | 0.55 |
| Cc1c(NC(=O)C(=O)/C=C(\O)c2ccc(Cl)cc2)c(=O)n(-c2ccccc2)n1C | i | 2.3 |
| COc1cccc(OC)c1C(=O)NC(=S)Nc1cc(-c2nc3ccccc3[nH]2)ccc1Cl | i | 0.37 |
| O=C(NCCOc1ccccc1)C1CCC(=O)N(CCc2ccc(Cl)cc2)C1 (stereo not drawn) | i | -0.51 |

Exported with the structure last: entries from further up.
KCNQ2 block	KCNQ2 block baseline	compound
i	-0.26	CC(C)C(=O)N1CCN(c2ccccc2NC(=O)Cc2ccc(Cl)cc2)CC1
i	1.3	CCC(C)c1ccc(NC(=S)Nc2ccc(OC)cc2C)cc1 (stereo not drawn)
i	1.5	Cc1cccc(OCCCC(=O)O)c1C
